Screening data from PubChem BioAssay.
KCNQ2 block: KCNQ2 channel blockers in CHO-K1 cells – cell-based, FluxOR thallium flux, B-score, primary screen (AID 2156). 20 min; hits give low values; only compounds with negative scores are shown here; some inactives read as strong as hits. B-score at 10 µM. 310,000 tested, 1.1% active;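 active = fluorescence ratio B-score at most minus 3 library SDs, with starting brightness B-score within 2 library SDs, cut at about -5.5 in these data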
Target sequence (O88943 whole entry, looked up): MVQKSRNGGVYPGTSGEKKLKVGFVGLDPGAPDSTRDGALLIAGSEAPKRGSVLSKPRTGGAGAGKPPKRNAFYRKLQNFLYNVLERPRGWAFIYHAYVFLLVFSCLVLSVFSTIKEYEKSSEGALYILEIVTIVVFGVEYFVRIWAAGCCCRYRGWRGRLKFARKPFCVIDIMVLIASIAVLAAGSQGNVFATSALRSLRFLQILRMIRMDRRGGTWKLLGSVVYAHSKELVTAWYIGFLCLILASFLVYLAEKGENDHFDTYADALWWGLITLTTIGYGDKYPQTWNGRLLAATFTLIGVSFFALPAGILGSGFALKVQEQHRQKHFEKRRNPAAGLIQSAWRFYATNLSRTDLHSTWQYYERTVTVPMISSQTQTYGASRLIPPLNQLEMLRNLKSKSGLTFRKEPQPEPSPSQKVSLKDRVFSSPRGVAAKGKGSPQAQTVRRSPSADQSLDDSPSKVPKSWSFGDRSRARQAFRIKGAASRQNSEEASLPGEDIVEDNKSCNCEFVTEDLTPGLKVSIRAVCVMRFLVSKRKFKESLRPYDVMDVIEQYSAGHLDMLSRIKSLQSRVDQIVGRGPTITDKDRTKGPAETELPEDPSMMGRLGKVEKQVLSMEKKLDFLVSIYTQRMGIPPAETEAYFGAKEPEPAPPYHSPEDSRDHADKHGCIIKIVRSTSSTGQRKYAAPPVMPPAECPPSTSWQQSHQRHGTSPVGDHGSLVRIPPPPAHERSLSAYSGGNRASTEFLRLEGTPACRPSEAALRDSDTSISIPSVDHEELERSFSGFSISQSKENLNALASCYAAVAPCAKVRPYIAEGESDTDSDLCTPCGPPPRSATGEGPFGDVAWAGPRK
KCNQ2 block baseline: also measured in KCNQ2 block; calls as there; B-score; measured here: initial fluorescence intensity artifact check;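 brightness before thallium and not channel activity; 0 = typical well and far values either way flag optical interference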
The depositor's hits bear a star; i = inactive.

Start of the data: the first 6 compounds, to show the layout:
KCNQ2 block	KCNQ2 block baseline	mol
i	-0.35	O=C(NC1CCS(=O)(=O)C1)c1ccc(-c2ccc(Br)cc2)o1 (stereo not given)
i	-0.04	Cc1cc(NC(=O)CN2CCCCCCC2)no1
i	0.58	CCCCOc1ccccc1C(=O)NCCCCCC(=O)O
i	0.41	COc1ccc(C2NC(=O)N(C)C(C)=C2[N+](=O)[O-])cc1 (stereo not given)
i	1.87	COc1ccc(C2C(C(=O)C(C)(C)C)=C(O)C(=O)N2Cc2ccccc2)cc1 (stereo not given)
i	0.05	Cc1ccc(CNS(=O)(=O)NCc2ccccc2F)cc1

The listing, repeating the preview:
KCNQ2 block	KCNQ2 block baseline	mol
i	-0.35	O=C(NC1CCS(=O)(=O)C1)c1ccc(-c2ccc(Br)cc2)o1 (stereo not given)
i	-0.04	Cc1cc(NC(=O)CN2CCCCCCC2)no1
i	0.58	CCCCOc1ccccc1C(=O)NCCCCCC(=O)O
i	0.41	COc1ccc(C2NC(=O)N(C)C(C)=C2[N+](=O)[O-])cc1 (stereo not given)
i	1.87	COc1ccc(C2C(C(=O)C(C)(C)C)=C(O)C(=O)N2Cc2ccccc2)cc1 (stereo not given)
i	0.05	Cc1ccc(CNS(=O)(=O)NCc2ccccc2F)cc1
i	-0.85	O=C(Nc1ccc(Cl)cc1)OCc1ccccn1
i	-0.64	CC(NC(=O)Cn1c(=O)oc2cc(S(=O)(=O)N3CCCC3)ccc21)c1ccccc1 (stereo not given)
i	-0.99	COc1cc(/C=C2\SC(=S)N(CC(=O)O)C2=O)ccc1OS(=O)(=O)c1ccc(C)cc1
i	-0.57	Cc1[nH]c(=S)c(C#N)c(-c2ccccc2)c1C(=O)Nc1ccccc1
i	4.05	O=[N+]([O-])c1ccc(Sc2cccc3cccnc23)c2cccnc12
i	0.33	O=C(CN1C(=O)C2CCc3[nH]c4ccccc4c3C2C1=O)N1CCCC1 (stereo not given)
i	-0.69	COc1ccc(C2CC(c3cccs3)=NN2C(=O)CSc2nc3ccccc3o2)cc1 (stereo not given)
i	-1.25	CCC1CCCCN1S(=O)(=O)c1ccc(S(=O)(=O)N(Cc2cccs2)C2CC2)cc1 (stereo not given)
-10.9*	-0.49*	Cc1ccccc1OCc1n(CC(=O)OC2CC(C)CCC2C(C)C)c2ccccc2[n+]1C (stereo not given)
i	-0.16	Cc1cc(=O)n2c3c(sc2n1)C(=O)N(Cc1ccccc1)C3=O
i	0.08	COc1ccc(CNC(=O)c2c(O)c3ccccc3n(C)c2=O)cc1OC
i	-1.63	O=C(CCCN1CCc2[nH]c3ccc(F)cc3c2C1)c1ccc(F)cc1
i	-0.01	C=CCn1c(Cc2ccccc2)nc2c(cnn2-c2ccccc2)c1=O
i	0.94	CC(C)NC(=O)c1onc(CSc2ccc(F)cc2)c1C(=O)NC(C)C
i	-0.17	CCCCSCCCNC(=O)C1CCC(CNS(=O)(=O)c2ccc(NC(C)=O)cc2)CC1 (stereo not given)
i	1.3	Cc1occc1C(=O)N=Nc1c(O)n(C)c2ccccc12
i	2.11	CCCc1nn2c(=O)cc(CSCC(=O)Nc3nnc(C(C)C)s3)nc2s1
i	-1.5	COc1cccc(/C=C/C(=O)NCCc2ccc3c(c2)OCCO3)c1
i	-0.68	COc1cccc(C2CC(=O)Nc3cc(OC)c(OC)cc32)c1 (stereo not given)
i	1.38	COc1ccc(N2CCN(C(=O)CCCOc3cc(=O)n(C)c4ccccc34)CC2)cc1
i	1.08	CCCCC1=CC2=CC(=O)C(C)(OC(=O)c3ccc(Cl)nc3)C(=O)C2=CO1 (stereo not given)
i	2.71	Cc1ccc(CS(=O)Cc2ccc(C(=O)N3CCN(C4CCCCC4)CC3)o2)cc1 (stereo not given)
i	0.74	Cc1nc(-c2cccnc2)sc1C(=O)Nc1cccc(C(F)(F)F)c1
i	1.3	CN1CCN(C(=S)NC(=O)/C=C/c2ccccc2Cl)CC1
i	-0.03	CC(C)CCn1nnnc1C(c1ccc(F)cc1)N1CCC(C(N)=O)CC1 (stereo not given)
i	0.43	Cc1cc(Cl)ccc1NC(=O)CCC(=O)N/N=C/c1cc([N+](=O)[O-])ccc1O
-9.33*	-0.6*	COc1ccc(Br)cc1C(=O)Nc1ccccc1-c1ccccc1
i	-0.02	CC(=O)N1CCSc2ccc(S(=O)(=O)NCc3ccc(F)cc3)cc21
i	-0.02	COc1ccc(OC)c(C2C(C(=O)Nc3nc4ccccc4s3)=C(C)NC3=C2C(=O)CCC3)c1 (stereo not given)
i	1.15	NC(=O)C1CCN(C(=O)c2cccc3ccccc23)CC1
i	0.25	CCOc1ccccc1C(=S)NC1CCCCC1
i	-0.01	Cc1ccc(/C=N/NC(=O)c2sccc2OCc2ccc(F)cc2)cc1
i	0.01	CC1CCc2sc(C(=O)N/N=C/C3CCCCC3)cc2C1 (stereo not given)
i	1.04	CC(=O)N/N=C(\C)c1ccc(Br)cc1Br
i	0.3	Cc1cc(Br)ccc1N=C1NC(=O)CS1
i	-0.34	Cc1cc(=O)n(Cc2ccc(OC(C)C)cc2)c(=S)[nH]1
-6.13*	-0.06*	COC(=O)c1ccccc1NC(=O)c1cc2sccc2n1C
i	0.75	O=C(NCC(=O)N(Cc1cccs1)C(C(=O)NC1CCCCC1)c1ccncc1)c1ccco1 (stereo not given)
i	1.23	COc1ccc(C(=O)C(C)[n+]2ccc(-c3nnc4n3CCCCC4)cc2)cc1 (stereo not given)
-5.6*	-0.02*	Fc1ccccc1Cc1noc(CN2CCN(c3ccc(Cl)cn3)CC2)n1
i	0.12	Cc1oc(-c2cccc(Cl)c2)nc1CN1CCC(C(=O)N2CCN(c3ccccc3F)CC2)CC1
i	-2.01	COc1cc(/C=N/NC(=O)c2cc(-c3ccco3)nc3ccccc23)cc(OC)c1O
i	-0.08	COC(=O)[C@@H](NC(=O)/C=C/c1ccc(OC)cc1)C(C)C
i	-0.8	COCCn1c(SCC(=O)Nc2nnc(C)s2)nnc1-c1ccoc1C
i	0.28	CC1CN(S(=O)(=O)c2ccc(C(=O)N(CCCN(C)C)c3nc4cc5c(cc4s3)OCCO5)cc2)CC(C)O1 (stereo not given)
i	0.54	COc1ccccc1C(=O)Nc1ccc(S(=O)(=O)Nc2nccs2)cc1
i	-0.65	CCOC(=O)Cn1nc(C)cc1NC(=O)c1cc(OC)c(OC)c(OC)c1
i	-0.67	O=C(CC(c1ccco1)S(=O)(=O)c1ccccc1)c1ccccc1 (stereo not given)
i	0.33	O=C(NCCCCCCNC(=O)c1cccs1)c1cccs1
i	0.11	Cc1cc(N2CCN(C)CC2)nc2ccc(NC(=O)CCC(=O)NCCc3ccc(Cl)cc3)cc12
i	-0.82	CCn1c(SCC(=O)N/N=C/c2ccc(OC)c(OC)c2)nc2ccccc21
i	0.04	COc1ccc2oc(=O)c(C(=O)OCc3ccccc3)cc2c1
i	-0.18	COCC(=O)N1CCC(Oc2ccc(C(=O)N[C@H](C(=O)OC)C(C)C)cc2)CC1
i	1.65	O=C(c1ccccc1)N1C(=O)C(c2ccccc2)Oc2ccccc21 (stereo not given)

An excerpt from above in order of the KCNQ2 block value, low to high.
KCNQ2 block	KCNQ2 block baseline	mol
-9.33*	-0.6*	COc1ccc(Br)cc1C(=O)Nc1ccccc1-c1ccccc1
-6.13*	-0.06*	COC(=O)c1ccccc1NC(=O)c1cc2sccc2n1C
-5.6*	-0.02*	Fc1ccccc1Cc1noc(CN2CCN(c3ccc(Cl)cn3)CC2)n1

In the list so far, two have a COOH group:
KCNQ2 block	KCNQ2 block baseline	mol
i	0.58	CCCCOc1ccccc1C(=O)NCCCCCC(=O)O
i	-0.99	COc1cc(/C=C2\SC(=S)N(CC(=O)O)C2=O)ccc1OS(=O)(=O)c1ccc(C)cc1

(list continues)
KCNQ2 block	KCNQ2 block baseline	mol
i	-0.88	Cc1ccc(C(=O)NC(=S)NNC(=O)c2ccccc2O)cc1
i	1.01	Nc1cc(=O)[nH]c(SCC(=O)NNC(=O)Cc2ccccc2)n1
i	1.74	COc1ccc(C(=O)Nc2cccc3c2CCCC3)cc1
i	-1.07	CC(C)CC(NC(=O)CCC(=O)OCC(=O)[C@@]1(O)CCC2[C@@H]3CCC4=CC(=O)C=C[C@]4(C)C3[C@@H](O)C[C@@]21C)C(=O)O (stereo not given in full)
i	-0.39	CCOc1ccc(C(=O)NCCN2CCCC2)cc1
i	0.74	C=C(C)c1cccc(C(C)(C)NC(=O)NCc2cccnc2)c1
i	0.28	OC1O[C@H](c2ccc3c(c2)OCO3)[C@H]2CO[C@H](c3ccc4c(c3)OCO4)[C@@H]12 (stereo not given in full)
i	1.94	COc1ccc(-c2nnc(NC(=O)C3CCCN3S(=O)(=O)c3cccs3)o2)cc1 (stereo not given)
i	1.49	Cc1ccc(C)c(N2CCN(c3nnnn3-c3ccccc3)CC2)c1
i	-1.28	CC(=O)c1ccccc1NCC(=O)Nc1ccc(C)cc1
i	-0.02	Cc1cc(SCC(=O)NN=C2CCN(C(C)C)CC2)c(C)cc1Br
i	-1.55	Cc1cc(Cl)ccc1C(=O)C1CCCN(C(=O)c2nonc2C)C1 (stereo not given)
i	0.26	CC(=O)N1N=C(c2ccccc2)OC1c1ccc([N+](=O)[O-])s1 (stereo not given)
i	0.14	O=C(CS(=O)(=O)c1ccccc1)Nc1cccnc1
i	0.54	COc1ccc(C(=O)COC(=O)c2nn(C)cc2Cl)cc1
i	0.21	Cn1c(=O)n(Cc2ccc(F)cc2)c(=O)c2c1nc1n2CCN1Cc1ccco1
i	0.77	Oc1cccc(-c2nc3c4c(ncn3n2)-c2ccccc2CC42CCCC2)c1
i	-0.42	COc1ccc(Br)cc1C(=O)Nc1ccccc1N1CCN(C(=O)c2ccccc2)CC1
i	2.39	Cc1ccccc1NC(=O)Cc1cccc(C(F)(F)F)c1
i	1.34	CC(=O)Cn1c(CN2CCCC2)nc2ccccc2c1=O
i	-0.52	CCOc1ccccc1N1CC(C(=O)Nc2cc(Cl)ccc2C)CC1=O (stereo not given)
i	-0.77	N#Cc1c(NC(=O)c2cnn3cccnc23)sc2c1CCCC2
i	0.68	COc1ccc(C(=O)N/C(=C/c2cccnc2)C(=O)N2CCN(C)CC2)cc1OC
i	1.05	NS(=O)(=O)c1ccc(CCNS(=O)(=O)c2cccc3cccnc23)cc1
i	-0.03	CCOc1ccc(NC(=O)/C(=C\c2ccc(OC(C)=O)c(OC)c2)NC(C)=O)cc1
i	-1.04	O=C(Nc1nc2n(n1)C(c1ccc(F)cc1)CC(c1ccccc1)N2)c1ccco1 (stereo not given)
i	1.46	CC(CCc1ccco1)NC(=O)CCc1nnc2ccc(NCc3ccccc3Cl)nn12 (stereo not given)
i	0.21	CCc1ccc(C2CC(=O)N(c3ccc(F)cc3)C3=C2C(=O)OC3)cc1 (stereo not given)
i	-1.03	Cc1ccc(OCCCC(=O)Nc2ccccc2C(F)(F)F)cc1
i	-0.34	Cc1cc(C)cc(NC(=O)CSc2nc(N)c(NC(=O)c3ccc(Br)o3)c(=O)[nH]2)c1
i	-0.48	Cc1sc2nc(CN3CCOCC3)nc(NS(=O)(=O)c3ccc4c(c3)OCCO4)c2c1C
i	-1.9	CCN1CCN(C(=O)/C=C/c2ccccc2[N+](=O)[O-])CC1
i	0.6	Cc1ccccc1N(CC(=O)NC1CCCC1)C(=O)c1oc(C(C)(C)C)cc1C
i	-0.29	CCOC(=O)c1c(NC(=O)CN2C(=O)NC3(CCCCC3)C2=O)sc(C)c1-c1ccc(C)cc1
i	-0.13	O=C(Nc1ccc2oc(-c3ccc(F)cc3)nc2c1)c1ccccc1F
i	1.09	Nc1cccc2c1C(=O)N(CCOc1ccccc1F)C2=O
i	1.49	COC(=O)CSc1nc2ccccc2o1
i	0.83	O=C(COC(=O)c1ccc(Cl)c(S(=O)(=O)N2CCN(c3ccc(F)cc3)CC2)c1)Nc1cccc(Cl)c1
i	0.8	O=C(COc1ccccc1)Nc1ccc2c(c1)Cc1cc(NC(=O)COc3ccccc3)ccc1-2
i	1.14	O=C(NCc1ccccc1)C1CCN(S(=O)(=O)c2cc([N+](=O)[O-])ccc2Cl)CC1

Reprinted at random: 3 compounds from above
KCNQ2 block	KCNQ2 block baseline	mol
i	0.21	CCc1ccc(C2CC(=O)N(c3ccc(F)cc3)C3=C2C(=O)OC3)cc1 (stereo not given)
i	1.46	CC(CCc1ccco1)NC(=O)CCc1nnc2ccc(NCc3ccccc3Cl)nn12 (stereo not given)
i	0.6	Cc1ccccc1N(CC(=O)NC1CCCC1)C(=O)c1oc(C(C)(C)C)cc1C

Following part.
KCNQ2 block	KCNQ2 block baseline	mol
i	-1.02	COc1ccc2c(c1)c(=O)c(C(=O)c1ccc(C)cc1)cn2CC(=O)Nc1ccc(F)cc1
i	-1.99	Cc1nc2scc(C)n2c(=O)c1S(=O)(=O)NCCc1ccccc1
i	0.6	Cc1[nH][nH]c(=O)c1C(c1ccc(-c2ccccc2C(=O)O)o1)c1c(C)[nH][nH]c1=O
i	0.84	O=C(CCSc1ccccc1)Nc1ccccc1C(=O)N1CCCC1
i	1.55	O=C(COC(=O)Cn1cnc2ccccc21)Nc1cc2c(cc1Cl)C(=O)c1ccccc1C2=O
i	-0.09	C=CCn1c(NCc2ccc(N(C)C)cc2)nc2ccccc21
i	-0.2	COc1ccc(CCn2c(-c3ccco3)nc3nc4ccccc4nc32)cc1
i	1.46	CN1C(=O)c2ccccc2NC(=O)[C@]12O[C@@H]2c1cccc(O)c1
i	-0.05	COc1cc(/C=N/n2cnnc2)ccc1OCCSc1ccc(C)cc1
i	1.17	CCCCN(C(=O)CSc1nnc(-c2ccccc2OC)n1C)c1c(N)n(Cc2ccccc2)c(=O)[nH]c1=O
i	-1.35	Cc1ccccc1NC(=O)Cc1nnc(SCC(=O)N2CCOCC2)n1C
i	0.54	O=c1cc(-c2ccc(O)c(O)c2)oc2cc(O)c(C3OC(CO)C(O)C(O)C3O)c(O)c12 (stereo not given)
i	-0.66	COC(=O)c1cccc(NC(=S)N2CCCCC2)c1
i	-0.59	CCN(CC)CCCN(C(=O)c1cccs1)c1nc(-c2ccc(OC)cc2)cs1

Not all compounds are listed. The share of hits here may be higher or lower than overall.
